ClpP mod: qHTS Assay for Activators of ClpP; ATP-dependent Clp protease proteolytic subunit (Bacillus subtilis (strain 168)), P80244; purified B. subtilis ClpP, FRET peptide cleavage, 20 min; Potency, µM (top dose mostly 57.5 µM), for inactives: at the top dose activity change, negative = active; 340,000 compounds, 1.9% hits; active = well fitted falling curve with a large enough effect; inconclusive = small, poorly fitted or top-dose-only effect; inactive = no such curve, though single readings can be large or run the other way; further: the source files actives as falling curves though it sought activators and does not explain the sign; nearly all actives have a fitted effect of over 65% in size; many hits overshoot -100%
Target sequence (P80244 whole entry, looked up): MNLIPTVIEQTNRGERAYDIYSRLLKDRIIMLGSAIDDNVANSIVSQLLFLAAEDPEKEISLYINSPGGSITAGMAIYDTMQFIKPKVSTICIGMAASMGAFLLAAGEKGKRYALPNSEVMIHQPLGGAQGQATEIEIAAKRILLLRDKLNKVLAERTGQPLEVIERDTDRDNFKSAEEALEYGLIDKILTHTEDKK
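FRET quenching reversal measured ClpP activation: 10 microg/mL B. subtilis ClpP at pH 8 with the FRET-FV decapeptide, read at 430 nm after 320 nm excitation. The 20-min minus 0-min signal was scaled between DMSO/no-enzyme wells and ADEP (5.8 microM final).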
The depositor's hits bear a star; ? = inconclusive. Potency means the concentration at half of the fitted maximal effect. An excerpt, so the mix of outcomes need not match the whole.

SMILES	ClpP mod
CC(C)CC(NS(=O)(=O)c1ccc2c(c1)oc(=O)n2C)C(=O)NCc1ccccc1Cl (centres undefined)	-1.5%
COC(=O)c1ccc(NC(=O)CN(C)S(=O)(=O)c2ccc(Br)s2)cc1	-2.2%
O=C(CSc1nc2c(c(=O)[nH]1)CCC2)Nc1cccc(O)c1	0.4%
COc1ccc(OC(=O)c2nc(SCc3ccc(C)cc3)ncc2Cl)cc1	-1.7%
CC(=O)NCCCN(Cc1ccc(Cl)c(Cl)c1)c1ccc(Br)cn1	-1.9%
CCN(CC)CCNC(=O)C(=O)Nc1c2c(nn1-c1ccc(F)cc1)CSC2	-2.4%
CCS(=O)(=O)N1CCc2cc(C(=O)Nc3ccc(OC)c(Cl)c3)ccc21	-12%
O=C(Nc1cccc(F)c1)c1cnc2sc(N3CCCC3)nn2c1=O	-5.0%
CCCCC(=O)Nc1nnc(S(=O)(=O)N(CC)c2cc(C)cc(C)c2)s1	2.6%
COc1ccccc1NC(=O)c1nn(C)c2c1CS(=O)(=O)c1ccccc1-2	1.0%
COC(=O)c1cc2oc3ccccc3c2n1Cc1nc(-c2ccc(OC)cc2)oc1C	-4.6%
CCOC(=O)c1c(Nc2ccc(F)cc2)nnc(-c2ccccc2)c1-c1ccccc1	0.4%
CCN(Cc1nc(-c2ccc(OC)c(OC)c2)no1)S(=O)(=O)c1ccc(OC)cc1	-1.0%
CCn1c(=O)cc(OCC(=O)N2CCN(c3ccc(C(C)=O)cc3)CC2)c2ccccc21	1.8%
O=C(Nc1cccc(C(F)(F)F)c1)c1cc2ccc3cccnc3c2[nH]1	1.5%
CC(C)(C)NC(=O)CCSc1nc(-c2ccc3c(c2)OCO3)cc(C(F)(F)F)n1	4.8%
COCCCn1c(SCC(=O)Nc2ccc(F)cc2)nc2c(sc3ccccc32)c1=O	5.6%
Oc1c(C(c2ccccc2F)N2CCN(c3ccccc3F)CC2)sc2nc(-c3ccco3)nn12 (centres undefined)	-3.7%
Cc1cccc(CNC(=O)c2cnc3sc(N4CCCCCC4)nn3c2=O)c1	-24%
CC(C)CCNC(=O)Cn1nc(N2CCN(c3ccccc3)CC2)ccc1=O	-0.6%

The last 3 records of the section above are carried over, then new ones follow:
SMILES	ClpP mod
Oc1c(C(c2ccccc2F)N2CCN(c3ccccc3F)CC2)sc2nc(-c3ccco3)nn12 (centres undefined)	-3.7%
Cc1cccc(CNC(=O)c2cnc3sc(N4CCCCCC4)nn3c2=O)c1	-24%
CC(C)CCNC(=O)Cn1nc(N2CCN(c3ccccc3)CC2)ccc1=O	-0.6%
CCc1ccccc1NC(=O)Cc1ccc(NC(=O)N2CCCCc3ccccc32)cc1	0.8%
CCc1cccc(C)c1NC(=O)C1CCCN1S(=O)(=O)c1cccc2nsnc12 (centres undefined)	0.9%
O=C(Cn1nc(-c2ccccc2)c2cnc3ccc(F)cc3c21)NC1CCCC1	-11%
CCNc1nc(C#N)nc(N2CCCCC2)n1	?
CCOc1ccc(-c2cc(C(=O)NCc3ccccc3)c3c(-c4ccc(CC)cc4)[nH]nc3n2)cc1	-7.4%
COc1cc(NS(=O)(=O)c2cc(Br)cc3c2N(C(=O)C2CC2)CC3)cc(OC)c1	0.3%
COc1ccc(-c2noc(CCC(=O)N(C)c3ccccc3C)n2)cc1	-0.1%
CN(C)c1ccc(CNC(=O)c2cccc(NC(=O)N3CCSc4ncccc43)c2)cc1	-11%
CCOc1ccc(NC(=O)c2ccc(-c3cccc(Cl)c3C)o2)cc1	-1.2%
Cc1ccc(C)c(NC(=O)C2CCCN(c3nc4ccccc4s3)C2)c1 (centres undefined)	0.0%
COC(=O)c1sc2c(c1C)c(=O)n(-c1ccccc1)c(=O)n2CC(=O)Nc1cccc(C)c1	2.6%
CCC(=O)N1CCc2cc(S(=O)(=O)NC(Cc3ccccc3)C(=O)NCc3ccccc3OC)ccc21 (centres undefined)	8.4%
Cc1ccc(NC2(c3ccccc3)C(=O)c3ccccc3C2=O)cc1F	-1.3%
COc1cc([C@@H]2c3cc4c(cc3[C@H](O)[C@H]3COC(=O)[C@@H]23)OCO4)cc(OC)c1OC	0.7%
O=C(Nc1ccc(F)cc1)C(c1ccnc2ccccc12)N1CCN(CC(=O)N2CCCC2)CC1 (centres undefined)	-1.5%
CCOc1ccccc1NC(=O)c1c(NC(=O)COc2ccccc2)sc2c1CCCCC2	3.0%
Cc1ccc2[nH]c3c(=O)n(CC(=O)N4CCN(c5ccccc5F)CC4)ncc3c2c1	-2.4%
Cc1cccc(C(=O)Nc2ccc3oc(-c4ccncc4)nc3c2)c1	4.1%
Cc1cccc(NC(=O)C2CCN(S(=O)(=O)c3cccc4nsnc34)CC2)c1C	-2.0%
O=C(Cn1c(SCC(=O)Nc2ccc(F)cc2)nc2ccccc21)NCc1ccc(F)cc1	0.8%
CC(C)CCN(C(=O)Nc1ccc(Cl)c(Cl)c1)C(C)c1cccs1 (centres undefined)	-0.1%
COc1ccc2cc(CNc3ccc(OC)c(OC)c3)c(=O)n(CC(=O)Nc3ccccc3F)c2c1	-1.3%
COc1ccc(NC(=O)CC2C(=O)N(c3ccc(C)cc3)C(=O)N2C2CCCC2)cc1 (centres undefined)	-2.7%
CC(C)(CC(=O)NCc1ccc(Cl)cc1Cl)CC1=NS(=O)(=O)c2ccccc2N1	4.0%
CCn1cc(S(=O)(=O)c2cc(C)cc(C)c2)c(=O)c2cc(F)c(N3CCC(C)CC3)cc21	-26%
Cc1c(NC(=O)c2ccc(-c3cccc([N+](=O)[O-])c3)o2)cccc1-c1nc2cc(Cl)ccc2o1	-11%
CCOc1ccccc1NC(=O)Nc1ccc2nc(N3CCN(C)CC3)cc(C)c2c1	11µM*
CCOc1ccccc1C(=O)NCc1ccc2c(c1)CCN2C(=O)c1ccc(F)cc1	-0.8%
COc1ccc(C(=O)Nc2ccc3oc(-c4ccc(OC)cc4)nc3c2)cc1	4.4%
Cc1ccc(CSc2oc(-c3ccco3)nc2S(=O)(=O)c2ccc(C)cc2)cc1	-4.3%
Cc1cccc(NC(=O)Cn2c(=O)oc3cc(S(=O)(=O)NC4CCCC4)ccc32)c1	0.0%
Cc1ccc(NC(=O)c2cnc(SCC(=O)Nc3cc(C)on3)n(C)c2=O)cc1	?
Cc1cc(C)cc(NS(=O)(=O)c2ccc3[nH]cc(C(=O)NCCc4ccccc4)c(=O)c3c2)c1	-4.2%
O=C(Nc1ccc(Br)cc1F)c1ccc2nc(CCc3ccccc3)oc2c1	0.4%
Cc1ccc(Cn2c(CO)cnc2SCc2ccc(F)cc2)cc1	-1.5%
CCOC(=O)CC(=O)CSc1nc2ccccc2c(=O)n1CCc1ccccc1	-2.2%
CCNc1nc(Oc2ccc(OCC(=O)OC)nn2)nc(N2CCOCC2)n1	-1.2%
CCCC(CCC)C(=O)Nc1cc(-c2cn3cccnc3n2)ccc1OC	?
CCCN1CNc2c(c(=O)[nH]c(=S)n2CCc2ccccn2)C1	-0.9%
CCOc1ccc(S(=O)(=O)Nc2ccc3oc4c(c3c2)CC(C)CC4)cc1 (centres undefined)	-5.6%

The closing six records of the section above are carried over, then new ones follow.
SMILES	ClpP mod
Cc1ccc(Cn2c(CO)cnc2SCc2ccc(F)cc2)cc1	-1.5%
CCOC(=O)CC(=O)CSc1nc2ccccc2c(=O)n1CCc1ccccc1	-2.2%
CCNc1nc(Oc2ccc(OCC(=O)OC)nn2)nc(N2CCOCC2)n1	-1.2%
CCCC(CCC)C(=O)Nc1cc(-c2cn3cccnc3n2)ccc1OC	?
CCCN1CNc2c(c(=O)[nH]c(=S)n2CCc2ccccn2)C1	-0.9%
CCOc1ccc(S(=O)(=O)Nc2ccc3oc4c(c3c2)CC(C)CC4)cc1 (centres undefined)	-5.6%
Cc1cc(C)c(NC(=O)c2cc(S(=O)(=O)NCCC3=CCCCC3)ccc2F)c(C)c1	-2.0%
O=c1[nH]c(SCc2c(F)cccc2Cl)nc2c1CCCC2	-3.6%
CCOc1ccc(CCNC(=O)CSc2nnnn2-c2ccccc2Cl)cc1OCC	0.2%
CC(CNC(=O)c1cnn(-c2ccc(F)cc2)c1-n1cccc1)c1ccccc1 (centres undefined)	-2.7%
Cc1cc(C)cc(NC(=O)c2ccc3oc(=O)c(S(=O)(=O)c4ccc(F)cc4)cc3c2)c1	-2.7%
Cc1ccc(CNC(=O)CN2C(=O)COc3ccc(S(=O)(=O)N4CCC(C)CC4)cc32)cc1	-1.8%
COc1cccc(NC(=O)c2ccc3[nH]c(C)cc(=O)c3c2)c1	0.0%
CC1(C)OC(=O)C2(Cc3ccc(Cl)cc3N3CCCCC32)C(=O)O1 (centres undefined)	0.5%
COc1cccc(NC(=O)c2sc3nc(C)c(C(=O)Nc4ccc(C)cc4C)c(-c4ccc(C)o4)c3c2N)c1	-2.0%
COc1ccc(-c2cn3c(n2)sc2cc(C(=O)NC4CCCCC4)ccc23)cc1	?
Cc1cccc(CN2Cc3cccc4c3[C@H](C=CC4)CC2=S)c1	-3.5%
Cc1ccc(NC(=O)Cn2c(=O)n(Cc3nc(-c4ccccc4)no3)c(=O)c3ccccc32)c(C)c1	-7.6%
COc1cccc(OCc2cc(=O)n3cc(C)sc3n2)c1	-5.9%
COc1ccc(CCNC(c2ccc(F)cc2)c2nnc(-c3ccccc3Cl)o2)cc1OC (centres undefined)	0.4%
CCN(CC)C(=O)c1c(-c2ccccc2)c(-c2ccccc2)nn(C)c1=O	-4.1%
CCc1ccccc1NC(=O)C1CCCN(c2cnccn2)C1 (centres undefined)	-10.0%
COc1ccc(-c2ccc3c(N)c(C(=O)Nc4cc(F)ccc4C)sc3n2)cc1	3.2%
CC(C)[C@@H]1Cc2[nH]c(=S)[nH]c(=O)c2[C@H](CCc2ccccc2)O1	-0.6%
O=C(c1ccc(Cl)cc1)c1cn(Cc2ccccc2)c2cc3c(cc2c1=O)OCCO3	-13%
O=C(Nc1ccccc1F)c1cnn2c1NC(=C1CC1)C=C2C(F)F	-0.9%
COc1cc(C2Nc3ccccc3C(=O)N2Cc2ccco2)ccc1O (centres undefined)	3.8%
CC(=O)N1CCCc2cc(S(=O)(=O)N3CCCCC3)ccc21	-0.2%
COc1cc(OC)c(OC)cc1/C=C/c1nc2cc3ccccc3cc2c(=O)n1-c1ccc(F)cc1F	-2.0%
O=C(Nc1ccc(F)cc1)C(c1cccc(F)c1)N1CCN(c2cccc(C(F)(F)F)n2)CC1 (centres undefined)	-22%
CCOc1ccc(CCNC(=O)c2sc3nc4n(c(=O)c3c2C)CCCC4)cc1	-7.0%
COc1ccc(CCNC(=O)c2ccc(Cn3c(=O)c4ccccc4n(Cc4ccc(F)cc4Cl)c3=O)cc2)cc1OC	1.2%
CC(Sc1nc(=O)cc(N)n1CCc1ccccc1)C(=O)Nc1ccc(Cl)cc1 (centres undefined)	0.5%
CCCOc1ccc(CNC(=O)c2ccc(C)c(-n3c(C)nc4cccnc43)c2)cc1	-5.3%
CCN(CC)CCNc1ncnc2c1cnn2-c1cc(Cl)ccc1C	-4.1%
CCOC(=O)c1ccc(N2C(=O)c3[nH]nc(-c4ccccc4)c3C2c2ccc(C(C)C)cc2)cc1 (centres undefined)	-0.7%
CN1C(=O)C(C)(C)c2cc(S(=O)(=O)N3CCCC3C(=O)Nc3ccc(F)cc3)ccc21 (centres undefined)	0.9%
CCOC(=O)c1ccc(NS(=O)(=O)c2ccc3[nH]c4c(c3c2)CCCCC4)cc1	1.1%
CN(C)c1ccc(CC2CCc3ccccc32)cc1 (centres undefined)	-4.2%
CCc1nc(SCc2cc(=O)c3cc(C)ccc3[nH]2)n[nH]1	1.0%
O=C1Nc2ccc(I)cc2C1=Cc1cc(Br)c(O)c(Br)c1	-0.3%
COC(=O)c1ccccc1NC(=O)Cc1nc(-c2ccc(OC)cc2)no1	28µM*
Cc1ccc(-c2c(N)nc3ncccn23)cc1	-2.0%
Cc1ccc(-n2nnc(-c3nsc(NC(=O)c4cccc(Cl)c4)n3)c2C)cc1C	-8.2%
CC(=O)c1ccc(NC(=O)CSc2nc3c(=O)n(C)c(=O)n(C)c3n2C)cc1	1.1%
CC1CCN(S(=O)(=O)c2ccc3c(c2)N(CC(=O)NCC(C)c2ccccc2)C(=O)CO3)CC1 (centres undefined)	-0.6%
CCN(CC)c1cc(C)c2cc(NC(=O)/C=C/c3ccc(C)cc3)ccc2n1	-3.2%
COc1ccc(/C=C(\NC(=O)c2ccccc2)C(=O)NC2CCCCC2)cc1	1.1%
Cc1cc(-c2ccc(C)c(S(=O)(=O)NCc3ccc(Cl)cc3)c2)on1	3.2%
CCCCn1c(COc2cccc(OC)c2)nc2ccccc21	-0.9%
CCOc1ccccc1NC(=O)c1cc2cc3cc(C)ccc3nc2s1	-7.1%
CCCCC(=O)NC1CC(=O)N(c2ccc3c(c2)OCCO3)C1 (centres undefined)	-3.3%
CCOc1ccccc1CNC(=O)c1cc2cc(S(=O)(=O)N3CCCCC3)ccc2n1C	?
CCCc1cc(=O)[nH]c2nnc(SC(C)CC)n12 (centres undefined)	1.3%
CCCCC1Cc2[nH][nH]c(=O)c2C(c2ccc(Cl)cc2)O1 (centres undefined)	2.0%
O=C(NCc1ccccc1Cl)c1ccc(-n2cnc3cccnc32)cc1	-4.2%
C(=C\c1nc2ccccc2nc1/C=C/c1ccc2c(c1)OCO2)/c1ccc2c(c1)OCO2	0.1%
CCCCNC(=O)CCSc1nc(-c2ccc3c(c2)OCO3)cc(C(F)(F)F)n1	?

Compound activity: PubChem BioAssay, National Center for Advancing Translational Sciences (NCATS)
